VDR inh: blocks the human vitamin D receptor; P11473; VDR-SRC2-3 peptide fluorescence polarization, 2 h; Potency, µM, without a hit: max response, negative = inhibition, usual class: inhibitors; 400,000 tested, 0.93% active; AID 504847; active means well fitted inhibition curve with a large enough effect; inconclusive means small, poorly fitted or top-dose-only effect, or another doubt; inactive means no such curve, though single readings can be large or run the other way; further: series mostly up to about 120 µM
Target sequence (P11473 whole entry, looked up): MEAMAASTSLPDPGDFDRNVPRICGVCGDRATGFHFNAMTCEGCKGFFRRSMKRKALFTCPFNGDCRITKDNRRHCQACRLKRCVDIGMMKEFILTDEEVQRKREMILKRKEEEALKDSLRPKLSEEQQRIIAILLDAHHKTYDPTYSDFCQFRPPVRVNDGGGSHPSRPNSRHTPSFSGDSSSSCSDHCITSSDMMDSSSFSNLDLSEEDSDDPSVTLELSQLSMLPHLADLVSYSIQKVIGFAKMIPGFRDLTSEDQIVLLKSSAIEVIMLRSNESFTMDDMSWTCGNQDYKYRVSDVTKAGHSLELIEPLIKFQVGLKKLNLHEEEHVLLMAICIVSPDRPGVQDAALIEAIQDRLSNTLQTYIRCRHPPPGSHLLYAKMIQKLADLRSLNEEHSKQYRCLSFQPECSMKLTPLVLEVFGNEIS
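Compounds are added to VDR with labelled SRC2-3 coactivator peptide and held 2 h at room temperature. Inhibition of the VDR–peptide interaction is then read as a change in fluorescence polarization.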
An asterisk follows results filed as active; ? = inconclusive; & = joins results of further samples. On the % scale 0 is the no-effect control and ±100 the full control effect; potency means the concentration at half of the fitted maximal effect. An excerpt; count on the stated rates, not on these rows.

SMILES	VDR inh
CCNC(=S)N=Nc1c(O)[nH]c2ccc(C(C)C)cc12	0%
CCc1ccc(NC(=S)N(Cc2ccc(Cl)cc2)Cc2ccc(C(=O)O)cc2)cc1	-24%
Cc1ccc(C)c(S(=O)(=O)Nc2ccccc2C(=O)Nc2ccccc2N2CCOCC2)c1	-4%
Cc1cc(=O)oc2c3c(ccc12)OCN(Cc1ccccc1Cl)C3	9%
O=C(CSc1nccn1Cc1ccc(F)cc1)Nc1ccc(F)cc1F	-12%
CCS(=O)(=O)c1ncc(Cl)c(C(=O)N(Cc2ccccc2)c2ccc(OC)cc2)n1	?
CCCCCCNCC(=O)N1CCC(Cc2ccccc2)CC1	-2%
Cc1ccc2nc(N(Cc3cccnc3)C(=O)CCS(=O)(=O)c3ccccc3)sc2c1	9%
Cc1cccc(NC(=O)c2nnn(CC(=O)Nc3ccc(C(C)C)cc3)c2N)c1C	-8%
C=CCNC(=O)CN1CCC(O)(c2ccccc2)CC1	-15%
Cc1cccc(NS(=O)(=O)c2ccc(C(=O)NCC3CCCO3)cc2)c1C (stereo unspecified)	1%
COc1ccc(CCNC(=O)[C@@H](NC(=O)N2CC(=O)Nc3ccccc32)C(C)C)cc1OC	0%
COc1ccc(CCCc2n[nH]c(=S)o2)c(C)c1	1%
O=C(Nc1cccc(F)c1)C1CCN(S(=O)(=O)c2cccc3nsnc23)CC1	?
O=C(CNC(=O)c1ccncc1)N/N=C/c1cc(Br)ccc1O	-18%
COc1ccccc1NC(=O)Nc1nc(CC(=O)N2CCN(c3ccccc3OC)CC2)cs1	-15%
O=[N+]([O-])c1cccc2c(Br)[nH]nc12	-3%
CCc1ccc(CNC(=O)CCc2c(C)nn(-c3ccc(N4CCCCC4)nn3)c2C)cc1	10%
COc1cccc(N/C=C(\C#N)c2ccc(OCCCF)cc2)c1	?
Cc1ccccc1C(=O)Nc1nnc(-c2ccncc2)o1	-8%
COC(=O)COc1ccc(S(=O)(=O)N2CCN(c3ccc(OC)cc3)CC2)cc1	11%
COc1cc(C(=O)N/N=C/c2ccc(OC)c(CN3CCN(c4ccc(F)cc4)CC3)c2)ccc1O	-4%
CCCCCCN1CC(O)=C(c2ccccc2)C1=N	10%
Cc1cc(C)c(NC(=O)Cc2ccc(-n3c(C)nc4cccnc43)cc2)c(C)c1	0%
CN(C)CCCNC(NC(=O)/C=C/c1ccccc1)C(Cl)(Cl)Cl (stereo unspecified)	-2%
CCC(=O)N1CCc2cc(S(=O)(=O)NC(C(=O)N3CCc4ccccc4C3)C(C)C)ccc21 (stereo unspecified)	-13%
Cc1ccccc1OCCC(=O)OCC(=O)Nc1c(F)cccc1F	-15%
CCOc1ccc(NC(=O)CNC(=O)c2ccco2)cc1	14%
O=S(=O)(Nc1ccc(F)c(Cl)c1)c1ccc(Br)s1	-10%
CCCCN1C=C(C(=O)c2ccccc2)C(=O)CC1	-6%
CCc1ccc(OCC(=O)Nc2cc3oc4ccccc4c3cc2OC)c(Br)c1	-8%
N#CC1=C(SCC(N)=O)NC2=C(C(=O)c3ccccc32)C1c1ccc(Cl)cc1 (stereo unspecified)	-12%
Cn1cc(S(=O)(=O)c2cccc(Cl)c2)c(=O)c2cc(F)c(N3CCCCC3)cc21	14%
COc1ccccc1NC(=O)Nc1ccnn1C1CCN(C(=O)c2cscn2)CC1	?
CC1=C(C)N(C)[C@H](c2ccccc2Br)[C@H](O)C1=O	-7%
CCOC(=O)c1[nH]ncc1CN1CCCC(C(=O)c2ccc(SC)cc2)C1 (stereo unspecified)	-7%
O=C(c1ccco1)N1CCN(C(=O)C2Cc3ccccc3CN2S(=O)(=O)c2ccc(F)cc2)CC1 (stereo unspecified)	-3%
O=C(CN1C(=O)c2cccc3cccc1c23)N1CCc2ccccc2C1	-4%
Cc1nn(-c2cccc(C(=O)O)c2)c(C)c1[N+](=O)[O-]	12%
COc1ccccc1N(CC(=O)N/N=C/c1ccc(C(=O)O)cc1)S(=O)(=O)c1ccc(C)cc1	3%

Ordered by SMILES length (smallest number first): 16 of the compounds above.
SMILES	VDR inh
CCCCCCN1CC(O)=C(c2ccccc2)C1=N	10%
CCCCN1C=C(C(=O)c2ccccc2)C(=O)CC1	-6%
CCOc1ccc(NC(=O)CNC(=O)c2ccco2)cc1	14%
O=S(=O)(Nc1ccc(F)c(Cl)c1)c1ccc(Br)s1	-10%
Cc1ccccc1OCCC(=O)OCC(=O)Nc1c(F)cccc1F	-15%
CC1=C(C)N(C)[C@H](c2ccccc2Br)[C@H](O)C1=O	-7%
O=C(CN1C(=O)c2cccc3cccc1c23)N1CCc2ccccc2C1	-4%
CCc1ccc(OCC(=O)Nc2cc3oc4ccccc4c3cc2OC)c(Br)c1	-8%
COc1ccccc1NC(=O)Nc1ccnn1C1CCN(C(=O)c2cscn2)CC1	?
COC(=O)COc1ccc(S(=O)(=O)N2CCN(c3ccc(OC)cc3)CC2)cc1	11%
Cc1cc(C)c(NC(=O)Cc2ccc(-n3c(C)nc4cccnc43)cc2)c(C)c1	0%
N#CC1=C(SCC(N)=O)NC2=C(C(=O)c3ccccc32)C1c1ccc(Cl)cc1 (stereo unspecified)	-12%
Cn1cc(S(=O)(=O)c2cccc(Cl)c2)c(=O)c2cc(F)c(N3CCCCC3)cc21	14%
CCC(=O)N1CCc2cc(S(=O)(=O)NC(C(=O)N3CCc4ccccc4C3)C(C)C)ccc21 (stereo unspecified)	-13%
COc1cc(C(=O)N/N=C/c2ccc(OC)c(CN3CCN(c4ccc(F)cc4)CC3)c2)ccc1O	-4%
COc1ccccc1N(CC(=O)N/N=C/c1ccc(C(=O)O)cc1)S(=O)(=O)c1ccc(C)cc1	3%

(listing goes on)
SMILES	VDR inh
Cc1cccc(-n2c(-c3ccccc3)c[nH]c2=S)c1C	0%
S=c1[nH]nc(-c2cccnc2)n1-c1ccc2c(c1)OCCO2	-6%
Cc1[nH]c2c(ccc3ccccc32)c1C1C(CCN)C1(C)C (stereo unspecified)	0%
O=C(Nc1ccccc1)c1c(F)cccc1F	-5%
O=C(COC(=O)c1ccc[nH]c1=O)Nc1ccc2c(c1)OC(F)(F)O2	-12%
CC(C)(C)CN1CCN(CC#Cc2ccccc2)CC1CCO (stereo unspecified)	-16%
COc1ccc(-n2c(C)c(C)c3c(NCCO)ncnc32)cc1	-14%
COc1ccc(OCCCC(=O)OC(C)C(=O)Nc2ccc(NC(C)=O)cc2)cc1 (stereo unspecified)	-17%
COC(=O)c1ccccc1NC(=O)Cn1c(=O)n(CCCC(=O)NCc2ccccc2OC)c(=O)c2ccccc21	5%
CC(C)(C)NC(=O)c1cnn(-c2ccccc2)c1NC(=O)c1ccccc1	-3%
COCCCN1C(=O)C(O)=C(C(=O)c2ccco2)C1c1ccc(Br)cc1 (stereo unspecified)	-9%
CC(C)c1ccc(NC(=O)C2CCN(c3nc(-c4ccc(C(C)C)cc4)no3)CC2)cc1	0%
CCCCNS(=O)(=O)c1ccc(NC(=O)Cc2ccccc2[N+](=O)[O-])cc1	-12%
Cc1cc(C)nc(-n2nc(C)cc2NC(=O)COC(=O)CCC(=O)c2cccs2)n1	5%
CCc1cccc(CC)c1NC(=O)c1ccccc1CCc1ccccc1	0%
Cc1nc(C(=O)NCCO)cc2c1[nH]c1ccccc12	?
Cc1cccc(Nc2nc(N)nc(N)c2N=O)c1	5%
O=C(COC(=O)c1cccnc1Nc1ccccc1F)NCc1ccc2c(c1)OCO2	17%
CCN(CC(=O)Nc1c(F)cccc1F)C(=O)/C=C/c1ccc(OCC#N)c(OC)c1	-2%
Cc1cccc(OCCOCCSc2ncccn2)c1	12%
N#CCCN1CCN(C(CNS(=O)(=O)c2ccc(Cl)cc2)c2ccccc2)CC1 (stereo unspecified)	-3%
COc1ccc(CCNc2cc(C)nc3c(-c4ccc(Cl)cc4)c(C)nn23)cc1OC	-1%
COc1cc(-c2nc3ccccc3c(=O)n2N)cc(OC)c1OC	-17%
CC(C)CCNc1nnnc2c1sc1nc(N3CCOCC3)c3c(c12)CC(C)(C)SC3	4%
Cn1c(CNC(=O)c2ccco2)nnc1SCC(=O)Nc1ccccc1Cl	-19%
Cc1ccc(N2CC3=C(C2=O)C(c2ccccc2)NC(=O)N3C)cc1 (stereo unspecified)	18%
O=C(COC(=O)c1c[nH]c2ccccc12)Nc1cccc(F)c1	-2%
CCCCn1c(N)c(N(CCOC)C(=O)c2ccc3c(c2)C(=O)N(c2ccccc2Cl)C3=O)c(=O)[nH]c1=O	10%
COc1cccc(C(=O)/C=C/Nc2ccc(NC(C)=O)cc2)c1	-2%
O=C(COc1ccc(F)cc1Br)NCc1ccccn1	6%
CCCCCCCC/C=C\CCCCCCCC(=O)NCCO	1%&0%
O=C(Nc1ccc(Cl)cc1Cl)C1CCCO1 (stereo unspecified)	-12%
CSc1nc2nc(C)c(C/C=C/c3ccccc3)c(=O)n2[nH]1	-22%
COc1ccccc1N1CCN(/N=C/c2cc(OC)c(OC)c(OC)c2)CC1	-15%
CC(C)=CC(=O)Nc1ccc2c(c1)OCO2	2%
CC(C)c1ccc(C(C(=O)NC2CCCC2)N(C(=O)c2csnn2)C2CC2)cc1 (stereo unspecified)	-8%
CCOC(=O)c1ccc(NS(=O)(=O)c2c(C)[nH]c(C)c2C(=O)N2CCCCC2)cc1	1%
Cc1cccc(/C=C/C(=O)c2ccc([N+](=O)[O-])o2)c1	8.9µM*
CCN(CC)CCCN1C(=O)C(O)=C(C(=O)c2cc3ccccc3o2)C1c1ccccn1 (stereo unspecified)	-10%
O=C(CSc1nc2ccccc2c(=O)n1-c1ccc(F)cc1)NC1CC1	-9%
O=C(O)c1ccccc1/C=N/NC(=O)C1CCCCC1	-7%
Cc1ccccc1-c1nc2cc(N)ccc2o1	-1%
COc1ccc(CCNC(=O)c2ccc3c(SCC(=O)O)c4c(nc3c2)CCCC4)cc1OC	-23%
CC[C@]12c3[nH]c4cc(CCC(=O)N(C)C)ccc4c3CCN1C(=O)[C@@H](CC(=O)NCCCn1ccnc1)C[C@@H]2C(=O)N1CCN(C(=O)c2ccco2)CC1	-5%
Cc1cc(C)cc(OCC(O)Cn2nc(C)cc2C)c1 (stereo unspecified)	9%
O=C(CSc1nnc2c(Cl)cc(Cl)cn12)NC1CCS(=O)(=O)C1 (stereo unspecified)	-10%
CN1CCN(CCCCOc2ccc(F)cc2)CC1	1%
COc1ccc(CCNC(=O)c2cc(-c3cccs3)on2)cc1OC	-3%
O=C(NCSc1ccncn1)c1ccccc1	-6%
O=C(CCn1c(=O)sc2ccccc21)NC1CCCCC1	7%
O=C(O)c1cc(-c2ccc3ccccc3c2)nc2ccc(F)cc12	5%
CCc1ccc(C(=O)Nc2cccc(-c3nc4cc(C(C)C)ccc4o3)c2)cc1	8%
Cc1ccccc1CCNC(=O)C1CCC(=O)N(CCc2cccc(F)c2)C1 (stereo unspecified)	1%
COC(=O)c1nn(-c2ccccc2)c(=O)cc1Sc1ccc(Cl)cc1	7%
NC(=O)CCCn1c(C(=O)c2ccc(Cl)cc2)c2ccc(C(F)(F)F)cc2[n+]1[O-]	-1%
CC(NC(=O)Cn1cnnn1)C12CC3CC(CC(C3)C1)C2 (stereo unspecified)	-2%
COc1ccc2c(c1)CC(C(=O)NCCN1CCN(c3ccccc3F)CC1)CO2 (stereo unspecified)	1%
CNC(=O)COc1ccc(S(=O)(=O)Nc2ccc(OC)cc2)cc1	13%
Cc1ccc(OCC(=O)NCCc2c[nH]c3ccccc23)cc1	1%
CCCCCC(=O)/C=C/C=C\CCCCCCCC(=O)O	0%&0%

Next part.
SMILES	VDR inh
CCc1ccc(-c2cc(C(=O)Nc3ccc(S(=O)(=O)NC(C)=O)cc3)c3ccccc3n2)cc1	?
COC(=O)c1nc(NC(=O)c2ccc(Cl)cc2)n[nH]1	-4%
Cc1ccc(-c2cn(-c3ccc(Cl)cc3)c(S(=O)(=O)CC(=O)Nc3ccccc3)n2)cc1	12%
COC(=O)c1ccc2nc(C)cc(Nc3ccccc3C)c2c1	-19%
CCCC1(C(=O)O)NC(c2ccc(OC)cc2O)C2C(=O)N(c3ccc(OC)cc3)C(=O)C21 (stereo unspecified)	1%
CCCOC1CCCN(C(=O)c2ccc(OC)c(OC3CCN(C(C)C)CC3)c2)C1 (stereo unspecified)	0%
COc1ccc(Cl)cc1NC(=O)CN(C)C(=O)c1ccc2c(c1)CC(c1ccccc1)OC2=O (stereo unspecified)	8%
Cc1cc(OCC(=O)OCC(=O)NC2CCCCC2C)ccc1Cl (stereo unspecified)	-16%
Clc1ccc(Sc2cc(Cl)c(Cl)cc2Cl)cc1	5%
COc1ccc(N2CCN(C(=O)COC(=O)/C=C/c3ccc(C(F)(F)F)cc3)CC2)cc1	-9%
COc1ccc(N2CCN(CCCNC(=O)c3ccc4nc(N5CCCCC5)sc4c3)CC2)cc1	-12%
COc1ccccc1OCCC(=O)Nc1nc(C)cs1	-5%
Cc1csc(SCC(=O)Nc2cccc3nsnc23)n1	23%
COC(=O)CCc1sc(Nc2ccc(OC)cc2)nc1-c1ccc(OC)cc1	23%
c1ccc(NC2=NCCN2CCC2CCCC2)cc1	-23%
COc1ccc(S(=O)(=O)N2CCC(C(=O)NCc3cccnc3)CC2)cc1OC	4%
Cc1ccc(N2CCN(Cc3ccccc3)CC2=O)c(C)c1	2%
CN(C(=O)c1c(Cl)nc2sccn12)C1CCCCC1	18%
CCOc1cc(Cl)c(NC(C)=O)cc1OCC	-18%
O=C(CN1N=C(c2ccccc2)CCC1=O)NCc1ccc(F)cc1Cl	-7%
CN(CCOc1ccccc1)C(=O)c1cc([N+](=O)[O-])cc([N+](=O)[O-])c1	-12%
COC(=O)c1ccsc1NC(=O)c1ccc(Cl)s1	-18%
c1ccc2c(CNc3ccc(CNc4ncn[nH]4)cc3)cccc2c1	1%
CC(C)c1cc(CN2C(C)COCC2C)cc(C(C)C)c1O (stereo unspecified)	2%
CCCCN(C(=O)c1c(CC)noc1C)c1c(N)n(CCC)c(=O)[nH]c1=O	15%
Cc1nnc(N2CCCC(C(=O)Nc3ccccc3C(F)(F)F)C2)c2nn(-c3ccccc3)c(C)c12 (stereo unspecified)	-3%
CCOc1cc(NC(=S)Nc2cccc(OC)c2)c(OCC)cc1NC(=O)C(C)C	-4%
